# PrP UTR inh: suppresses PrP 5' UTR mRNA reporter expression. cell-based PrP 5' UTR mRNA reporter, plate reader. inhibition, % (no concentration beside the values). 340,000 tested, 0.35% active;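 active means every replicate at 50% or more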;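 further: 0 = median of the neutral control wells; tested in H4 reporter cells; numbers are from one replicate; inactives centre near -14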
# Sa ugtP lethal: kills S. aureus RN4220 lacking UgtP; S. aureus RN4220 ugtP deletion, OD600 growth, 16 h; some inactives read as strong as hits; growth inhibition, % (test concentration not listed); 330,000 tested, 0.54% active;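 active means z-score under -3 and OD600 up to 0.15 on both plates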;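 further: plate controls were untreated wells for no effect and antibiotic for full effect; wells of about 80 µL received 100 nL stock; the first replicate is given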
# Sa RN4220 lethal: kills Staphylococcus aureus RN4220 | inhibition, % (concentration not given with the values) | S. aureus RN4220 growth, OD600, 16 h | 330,000 tested, 0.33% active;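 active means z-score of -3 or lower and OD600 up to 0.18 on both plates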;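 further: plate controls were untreated cells for no effect and reference antibiotic for full effect; stock transfer was 100 nL into about 80 µL; one replicate is shown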
# BJeLR lethal: kills HRASV12-expressing BJeLR cells | BJeLR (HRASV12) viability, CellTiter-Glo ATP luminescence, 48 h; reference of the scale not given here | inhibition, % (concentration not given with the values) | 300,000 tested, 0.17% active | AID 1554;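 active means replicate mean above 50%; inconclusive means above 50% but judged a plate artefact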;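 further: 50 nL library stock added to about 25 µL; numbers are from one replicate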
# Autofluor counter: compound fluorescence in toxin protease inhibitor counterscreen | fluorescence intensity (concentration not given with the values) | 360,000 tested, 3.1% active | compound autofluorescence counterscreen, microsphere flow cytometry; stronger effect = higher value;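 active means at least 3 SD above the mean of all compounds, about 16000 in these data; inconclusive means too few beads counted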;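 further: 100 nL of 1 mM stock went into each well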
# Mtb hypoxia inh: Mtb hypoxia fluorescent reporter inhibition; M. tuberculosis hypoxia-regulated fluorescent reporter, fluorescence; fluorescence inhibition, % (concentration not given with the values); 300,000 tested, 0.1% active; AID 1159583;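 active means 35 to 45% if threefold the growth effect, above 45% if 1.5-fold the growth effect; inactive means the rest, general growth blockers included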;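 further: wells of about 50 µL received 100 nL stock; 0% = vehicle wells and 100% = reference inhibitor wells; whole bacteria with a GFP reporter of the hypoxia response; strong numbers were not always called active; many hits fall short of the cut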
# Mtb hypoxia inh growth: recorded beside Mtb hypoxia inh, whose call it bears; growth inhibition, %; measured here: M. tuberculosis growth (absorbance);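 0% = vehicle and 100% = reference antibiotic; read after six days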
# Active calls of the source: *; ? = inconclusive; . = no result given.
SMILES,PrP UTR inh,Sa ugtP lethal,Sa RN4220 lethal,BJeLR lethal,Autofluor counter,Mtb hypoxia inh,Mtb hypoxia inh growth
O=C(CCN1C(=O)c2ccccc2C1=O)Nc1ccc(-c2nc3ccccc3o2)cc1,-50.3,7.1,3.4,3.0,2400,.,.
COc1ccc(C(=O)NC(C)Cn2nc(C)cc2C)cc1OC1CCN(C(C)=O)CC1 (configuration not stated),3.2,7.6,1.9,-5.6,5594,16.7,0.5
COc1ccc(NC(=O)c2sc(SC)nc2N)cc1,-48.5,-2.7,4.3,11.9,5562,-0.7,8.8
CCOc1ccc(-n2c(C)c(C(C)=O)c3cc(OC(C)=O)ccc32)cc1,21.8,7.2,1.0,-2.4,3203,2.1,11.4
O=C(NN=Cc1cc2ccccc2[nH]1)c1ccccc1Cl,.,1.0,1.8,.,.,1.1,8.0
S=c1[nH]nc(-c2ccco2)n1/N=C/C=C/c1ccccc1,-22.2,.,.,-1.5,8887,.,.
O=C(COC(=O)C1CC2C=CC1C2)NCc1ccc(F)cc1 (configuration not stated),-18.9,2.7,-3.4,-2.2,2228,3.3,9.7
O=C1C(Cl)=C(N2CCCCCC2)C(=O)N1c1ccc(Cl)cc1,-16.1,2.8,1.9,-2.5,4079,3.3,-6.4
CC(C)c1ccccc1NC(=O)COC(=O)C1(C)CC1(Cl)Cl (configuration not stated),-92.8,4.3,1.2,11.9,3045,10.3,6.2
COc1ccc(CNC(=O)CCN2C(=O)c3ccccc3S2(=O)=O)cc1,-25.1,4.4,4.7,-14.6,?,2.4,3.4
O=C(COc1ccccc1)Nc1ccccc1Cl,-39.6,5.2,8.2,1.4,2996,1.4,2.2
O=C(NCc1cccs1)c1cc2c(s1)CCCC2,-85.8,-1.8,9.5,-3.7,3797,.,.
O=[N+]([O-])c1cc(C(F)(F)F)ccc1NCCCCNS(=O)(=O)c1ccc(Cl)cc1,4.4,-25.9,-10.3,-4.9,10228,-2.2,-4.4
N#Cc1c2c(c(NCCOCCO)n3c1nc1ccccc13)CCCC2,-12.5,0.3,-5.6,0.8,4296,7.3,10.3
CC(=O)Nc1cccc(-n2nnc(SCC(=O)c3ccccc3)n2)c1,-49.5,-7.4,0.6,0.7,4119,2.6,6.9
O=C(NCCCOc1cccc(CN2CCCCC2)c1)c1ccc(Cl)c(Cl)c1,-14.5,.,.,-9.3,2928,.,.
CS(=O)(=O)NCc1nnc(SCc2ccccc2C(F)(F)F)o1,-18.7,-4.8,3.7,-1.3,9325,8.8,2.0
Cc1ccc(CNC(=O)CCc2nnc3ccc(NCCCN4CCCC4=O)nn23)cc1,0.9,4.2,2.2,-12.2,6134,-1.5,6.9
Cc1csc2ncc(C(=O)Nc3ccccc3F)c(=O)n12,-42.0,-4.1,2.5,3.6,5687,0.8,-1.8
COc1cccc(-c2nc(NCc3cccnc3)c3ccccc3n2)c1O,.,-1.4,-0.4,-2.6,3543,-4.1,9.4
O=C(NCCCN1CCCCCC1)C1CCCN(S(=O)(=O)c2cccc3nsnc23)C1 (configuration not stated),-24.1,9.8,0.5,.,4501,-2.6,11.2
N#CCC(=O)NNC(=S)NC(=O)C(c1ccccc1)c1ccccc1,-0.3,-3.6,8.2,-2.1,5535,-1.6,12.4
COCCOC(=O)C1=C(C)NC(=O)NC1c1ccco1 (configuration not stated),.,6.5,5.4,9.5,5876,11.5,13.5
CCOC(=O)c1cc[nH]c1C,-25.0,-1.2,3.3,3.5,2551,6.7,2.3
COc1ccc(CC(=O)Nc2ccc3c(c2)C(=O)N(CCC(=O)O)C3=O)cc1,-18.2,11.2,3.6,-0.4,2969,8.2,1.5
COc1ccc(CCN2CC(C(=O)O)CC2=O)cc1OC (configuration not stated),-1.0,2.2,0.8,3.0,?,-8.9,2.9
COc1cccc(NC(=O)c2cc3ccccc3oc2=NO)c1,.,-3.4,4.7,.,.,11.8,-0.5
COc1ccc(NC(=O)Nc2nnc(-c3ccccc3SCc3ccccc3)s2)cc1,-4.6,11.6,3.5,-8.2,2388,.,.
CCn1c(CNC(=O)c2ccccc2F)cc2cc(C)ccc21,-19.2,6.0,7.4,6.2,3874,12.2,4.2
COc1ccc(C=Nn2cnnc2)cc1Oc1nc(Cl)ncc1F,.,5.2,13.0,.,.,19.0,9.9
CCS(=O)(=O)Nc1ccc(Cc2ccncc2)cc1,3.0,5.4,-1.2,0.3,4682,.,.
CCc1ccc2oc(-c3cc(N)ccc3O)nc2c1,-19.9,-9.2,-5.7,-1.0,2937,15.1,6.6
O/N=C(/c1ccccc1)c1cc2cc(Br)cc(Br)c2o1,-16.8,.,.,-1.3,3708,.,.
Cc1cccc(N(CC(=O)NC(C)(C)C)C(=O)CS(=O)CC(=O)Nc2ccc3c(c2)OCO3)c1 (configuration not stated),-32.2,9.3,5.1,0.6,4092,6.4,3.0
CCOC(=O)c1ccc(N2C(=O)CC(NNC(=O)c3ccc(Br)s3)C2=O)cc1 (configuration not stated),.,-5.6,2.3,-12.8,4458,9.9,5.0
O=S1(=O)CC(O)C(Nc2ccccc2)C1 (configuration not stated),-2.6,5.1,1.1,0.7,4044,20.1,2.7
COc1ccc2oc(=O)c(C(C)=NNc3nc(-c4cc(C)ccc4C)cs3)cc2c1,.,-17.0,11.0,.,.,8.4,9.6
O=C(COc1ccccc1/C=C\c1[nH]c(=O)[nH]c(=O)c1[N+](=O)[O-])Nc1ccccc1,-27.6,11.1,8.5,-7.4,2079,7.3,7.9
O=C(NNC(=O)c1ccc(Cl)s1)c1csc(N2CCOCC2)n1,-2.6,-2.2,-0.7,8.0,7142,-0.5,-3.0
CCOc1ccc(NS(=O)(=O)c2ccc(C(=O)NCC(c3ccc(OC)cc3)N3CCCC3)cc2)cc1 (configuration not stated),-17.7,-0.7,-5.9,-0.3,15001,-6.8,-14.7

# For convenience, some entries already given.
SMILES,PrP UTR inh,Sa ugtP lethal,Sa RN4220 lethal,BJeLR lethal,Autofluor counter,Mtb hypoxia inh,Mtb hypoxia inh growth
COc1ccc2oc(=O)c(C(C)=NNc3nc(-c4cc(C)ccc4C)cs3)cc2c1,.,-17.0,11.0,.,.,8.4,9.6
O=C(COc1ccccc1/C=C\c1[nH]c(=O)[nH]c(=O)c1[N+](=O)[O-])Nc1ccccc1,-27.6,11.1,8.5,-7.4,2079,7.3,7.9
O=C(NNC(=O)c1ccc(Cl)s1)c1csc(N2CCOCC2)n1,-2.6,-2.2,-0.7,8.0,7142,-0.5,-3.0
CCOc1ccc(NS(=O)(=O)c2ccc(C(=O)NCC(c3ccc(OC)cc3)N3CCCC3)cc2)cc1 (configuration not stated),-17.7,-0.7,-5.9,-0.3,15001,-6.8,-14.7

# Following part
SMILES,PrP UTR inh,Sa ugtP lethal,Sa RN4220 lethal,BJeLR lethal,Autofluor counter,Mtb hypoxia inh,Mtb hypoxia inh growth
Cc1[nH]c(=O)[nH]c(=O)c1/C=N/NC(=O)CCNC(=O)OC(C)(C)C,0.5,.,.,-10.8,3428,.,.
Cc1nnc2c(NCC(C)c3ccccc3)nc3ccccc3n12 (configuration not stated),-42.9,-5.7,4.3,5.1,3474,-8.4,12.3
CC1CN(C(C)CO)C(=O)c2cccc(NS(=O)(=O)c3ccccc3)c2OC1CN(C)C(=O)Nc1ccc2c(c1)OCO2 (configuration not stated),.,-0.4,8.0,.,.,12.1,10.0
Cc1c(C(=O)NNC(=S)Nc2ccc(S(N)(=O)=O)cc2)oc2ccccc12,-16.7,0.7,-3.1,4.9,6130,5.9,12.6
COC(=O)c1cc(NS(=O)(=O)c2ccc(C(C)C)cc2)ccc1N1CCOCC1,-11.1,14.1,3.0,-4.2,4365,-1.1,-0.3
O=C(COC(=O)c1ccc(NS(=O)(=O)c2ccc3c(c2)OCCO3)cc1)NCC1CCCO1 (configuration not stated),-25.2,4.3,1.4,4.1,3726,16.1,11.5
CCn1nnnc1-c1ccc(OC)c(S(=O)(=O)Nc2ccc(C(=O)OC)cc2)c1,-32.2,4.7,2.2,4.4,4257,18.1,8.8
CC1CCCC(C)N1/N=C/c1ccc(C(=O)O)cc1 (configuration not stated),-31.8,.,.,3.6,5608,.,.
Nc1ccc(C(=O)N2CCN(S(=O)(=O)/C=C/c3ccccc3)CC2)cc1[N+](=O)[O-],-5.4,0.1,-1.8,0.8,6741,-4.9,-1.5
Cc1ccccc1C(=O)NCC(=O)c1ccccc1,.,-5.1,2.3,-4.2,6444,4.5,3.1
CCCS(=O)(=O)NCCc1csc(-c2ccc(OC)c(OC)c2)n1,-9.8,2.8,1.4,-16.3,9721,-2.1,2.9
CCN1CCN(Cc2c(O)ccc3c2O/C(=C\C=C\c2ccccc2)C3=O)CC1,-17.5,9.7,3.0,-2.9,2071,8.8,3.6
Cc1cc(C)cc(NC(=O)NC2CCN(CC(=O)Nc3cccc(Cl)c3C)CC2)c1,-12.0,5.6,3.6,-1.5,3595,-10.9,-8.2
COc1ccc(NS(=O)(=O)c2ccc(-n3nnc4ccccc43)c([N+](=O)[O-])c2)cc1,9.4,-24.0,-1.1,-1.3,21241*,-6.7,4.6
COc1ccc(C(=O)Nc2ccc(N3CCCCC3)cc2)cc1Br,-39.9,1.9,1.7,1.7,2139,18.0,5.8
CCN1C(=O)/C(=C/c2cnn(CC)c2C)SC1=S,-16.9,7.7,8.7,-2.1,2019,8.5,-1.2
Cc1ccc(NC(=O)CC(=O)c2ccccc2)cc1C,-72.1,12.9,2.7,-7.5,3829,17.4,1.6
COc1ccc2[nH]c(C)c(C(=O)CN(C)C)c2c1,-2.8,-3.6,1.7,5.6,12632,1.4,-0.1
O=C(Nc1ccccc1)c1cc2ccccc2c(=O)s1,-35.1,-16.8,-3.5,5.8,7439,2.2,1.5
Nc1nc(Cn2nnc(-c3ccccc3F)n2)nc(N2CCOCC2)n1,-4.7,-1.4,-1.5,-2.6,4445,.,.
CCOC(=O)c1ccc2c(c1)nc(C)n2CC,-63.9,1.9,1.5,-1.5,2830,6.1,10.6
O=C(CCCC(=O)N(CC(=O)NC1CCCCC1)Cc1ccc2c(c1)OCO2)Nc1ccccn1,7.2,4.3,-17.5,-10.3,2497,-2.9,0.5
C=CCSc1nnc(CNC(=O)c2ccccc2C)n1C(C)C,-0.2,7.1,-0.7,-4.6,2645,18.2,-4.2
COc1ccccc1C(CNC(=O)c1ccco1)N1CCCC1 (configuration not stated),-19.9,2.7,1.7,.,?,-2.3,6.5
COc1cc(OC)cc(-n2nnnc2SCC(=O)NCc2ccc3c(c2)OCO3)c1,16.4,-8.9,-3.5,-2.2,10285,-3.0,2.7
CCn1c(O)c(C=NNC(=O)c2ccncc2)c(=O)n(CC)c1=S,.,-1.1,6.7,.,.,11.1,10.1
COc1ccc(Nc2nc(-c3ccccc3)nc3ccccc23)cc1,-2.1,94.8*,8.3,0.8,6046,6.4,5.6
Cc1cn(C(=O)c2ccccc2)c(=S)n1-c1ccc(Br)cc1,7.4,-1.7,15.8,3.1,4386,5.3,2.5
Cc1ccc(NS(=O)(=O)c2c(C)[nH]c(C)c2C(=O)N2CCCCC2)cc1Cl,6.9,-11.8,1.9,-0.9,4115,5.3,16.4
CCCCC(=O)NN=C(C)/C=C/c1ccccc1F,.,5.1,0.8,.,.,6.5,7.2
COc1ccc(N2CCN(C(=O)c3ccccc3NC(=O)C3=C(C)OCCS3)CC2)cc1,-23.5,6.1,3.4,4.2,4143,16.4,2.4
CNCc1c(C)nn(-c2ccccc2)c1C,-25.9,10.1,0.5,-24.8,3968,-3.1,12.5
COc1ccc(CNC(=S)N/N=C/c2ccc(OC)c(OC)c2)cc1,-14.5,.,.,3.6,3192,.,.
Cn1c(-c2ccccc2)cnc1SCC(N)=O,-4.7,4.3,2.0,11.1,7680,1.5,3.4
O=C(N/N=C/c1ccccc1Cl)c1[nH]c2ccc(Br)cc2c1-c1ccccc1,39.5,.,.,60.5*,2420,.,.
Fc1cccc(Cl)c1Cn1ncc2ccccc21,-22.7,2.9,2.2,1.6,3701,1.4,5.1
O=C(c1ccc(-c2ccccc2)cc1)N1CCN(c2ccccc2F)CC1,-14.4,-3.1,-0.2,10.8,3765,-5.8,2.5
COc1ccc2c3c(cccc13)C(=O)N(O)C2=O,3.2,20.1,-1.0,11.4,2053,5.3,-3.7
O=C(N/N=C/c1ccc(N2CCOCC2)s1)c1ccc(NS(=O)(=O)c2cccs2)cc1,-11.4,.,.,-1.5,4210,.,.
Cc1cc(C)c2c(-n3cccc3)c(C(=O)NNS(=O)(=O)c3ccc(F)cc3)sc2n1,-25.4,-15.1,20.7,-5.3,3506,14.7,9.2

# High-throughput results deposited in PubChem BioAssay by several laboratories.
